# TSHR agonist: agonists of human thyroid stimulating hormone receptor; P16473; HEK293-CNG-TSHR cells (CNG channel as cAMP sensor), membrane potential dye, cAMP; Potency, µM (series often up to 57.1 µM), for the others: at the highest dose activation, actives largely listed as activators; 0.48% of 73,000 active; active = well fitted activation curve of enough size with the parental cells flat; inconclusive = any curve in the parental cells; inactive = parental cells flat and receptor cells flat or falling; note: potency is the fitted concentration of half-maximal effect; % of control where 0% means no effect; weak receptor curves with flat parental cells got no call and are not listed
# Target sequence (P16473 whole entry, looked up): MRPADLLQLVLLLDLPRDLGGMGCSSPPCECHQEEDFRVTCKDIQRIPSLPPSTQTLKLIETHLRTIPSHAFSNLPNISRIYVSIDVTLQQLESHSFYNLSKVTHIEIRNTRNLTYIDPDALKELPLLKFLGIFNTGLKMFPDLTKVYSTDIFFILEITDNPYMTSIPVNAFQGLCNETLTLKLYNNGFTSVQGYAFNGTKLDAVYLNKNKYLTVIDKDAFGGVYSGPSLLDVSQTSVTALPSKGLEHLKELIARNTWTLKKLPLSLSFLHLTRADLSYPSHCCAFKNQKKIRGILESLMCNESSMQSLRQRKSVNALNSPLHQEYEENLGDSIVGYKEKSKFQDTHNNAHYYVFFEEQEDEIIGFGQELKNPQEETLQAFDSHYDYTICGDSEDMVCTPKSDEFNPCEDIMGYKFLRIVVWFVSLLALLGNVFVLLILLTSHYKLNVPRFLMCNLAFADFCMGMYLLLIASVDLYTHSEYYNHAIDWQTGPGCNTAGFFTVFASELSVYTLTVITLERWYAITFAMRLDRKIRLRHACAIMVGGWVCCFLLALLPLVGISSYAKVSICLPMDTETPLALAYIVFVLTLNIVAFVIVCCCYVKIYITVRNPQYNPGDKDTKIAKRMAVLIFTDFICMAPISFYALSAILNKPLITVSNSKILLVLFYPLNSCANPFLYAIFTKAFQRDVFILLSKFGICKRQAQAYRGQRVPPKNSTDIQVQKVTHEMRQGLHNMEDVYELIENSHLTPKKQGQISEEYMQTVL
#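 HEK 293 cells stably expressing TSHR and a cAMP-gated CNG channel; parental CNG-only cells as counterscreen. Cells preloaded 60 min with membrane potential dye plus 100 uM RO 20-1724, then compound 30 min; fluorescence read at 590 nm.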
# A488 fluor: A488 region autofluorescence; compound autofluorescence, A488 spectral region, dye equivalency; hits give high values; max dye equivalency, M; 0.1% of 59,000 active; active = above 10 nM dye equivalent; inconclusive = 1 to 10 nM; inactive = 1 nM or less; about half of its hits are not listed in these tables;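 note: highest value over a series up to 38 µM; compound alone in buffer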
#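 Readout is A488 dye-equivalent concentration, calibrated by a per-plate six-point Alexa 488 series. Compounds in 100 mM Tris buffer pH 8.0 were incubated 15 min at room temperature. Plates were imaged using 480 nm excitation/540 nm emission filters.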
# Resorufin fluor: compounds fluorescent in resorufin spectral region; max dye-equivalent concentration, M; Compound fluorescence, resorufin region 547/598 nm, buffer; hits give high values; 0.04% of 59,000 active; AID 588; active = above 10 nM dye equivalent; inconclusive = 1 to 10 nM; inactive = 1 nM or less; a few of its hits are not listed in these tables; note: highest value over a series up to 38 µM
#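 Read-out: intrinsic compound fluorescence at ex 547/em 598 nm after 15 min at RT in pH 8.0 Tris (100 mM). Values expressed as resorufin-equivalent concentration from per-plate standard series.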
# AID923: qHTS Assay for Allosteric/Competitive Inhibitors of Caspase-1: Spectroscopic Profiling in AFC Spectral Region; 1.1% of 75,000 active; compound fluorescence, AFC spectral region (405/520 nm); almost no hit is shown here; Potency, µM (series often up to 57.5 µM), without a hit: at the highest dose fluorescence increase, usual class: activators; AID 923, 2007; active = well fitted activation curve with a large enough effect; inconclusive = small, poorly fitted or top-dose-only effect;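 note: potency is the fitted concentration of half-maximal effect; 0% is about no effect; scaled to a free AFC standard on each plate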
#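 Baseline compound fluorescence (AFC region, 405 nm ex/520 nm em) taken from the intercept of kinetic reads with 50 nM caspase-1 and 5 uM Ac-WEHD-AFC; normalized to an on-plate AFC standard curve; compounds titrated up to 57 uM.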
# A647 autofl: compound fluoresces in the A647 spectral region; Compound fluorescence, A647 channel (570/671 nm), Tris buffer; max dye-equivalent concentration, M; 59,000 tested, under 10 active; AID 592; active means above 1 µM dye equivalent; inconclusive means 0.1 to 1 µM; inactive means 0.1 µM or less;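 note: values scaled relative to a standard on each plate; highest value over a series up to 38 µM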
#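 Tris 100 mM pH 8.0; cpd + A647 stds pin-transferred; 15 min RT; CCD imager, ex 570/em 671. Output = A647-equivalent conc. per cpd conc.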
# Active calls of the source: *; i = inactive; ? = inconclusive; nt = no result given; [ ] = remark or other dose. An excerpt (hit frequency here may not be typical).
SMILES,TSHR agonist,A488 fluor,Resorufin fluor,AID923,A647 autofl
O=C(Nc1cccc(F)c1)C1CC(=O)N(c2ccc(Cl)cc2)C1 (stereo not drawn),13%,nt,nt,1.1%,nt
CC1(C)Cc2c(sc3c2C2=NCCN2C=N3)CS1,nt,i,i,nt,7.6e-08
Nc1nc(NCc2cccs2)nn1-c1ccccc1,-4%,i,i,1.6%,2.9e-09
COc1ccc(C(=O)c2coc3ccc(O)c(CN4CCCC4)c23)cc1,?,nt,nt,-0.5%,nt
Cc1cc(C)c(C)c(S(=O)(=O)NCc2ccco2)c1C,?,i,i,0.3%,1e-09
CCOC(=O)c1c(C)[nH]c(C(=O)CSc2nc3ccccc3o2)c1C,-3%,i,i,0.8%,2.8e-09
O=C(NCc1cccnc1)c1ccc(COc2ccc3c(c2)CCC3)o1,nt,i,i,-0.8%,6.3e-08
CC(C)Cc1cc(C(=O)Nc2cc(Br)ccc2O)no1,5%,nt,nt,2.3%,nt
CC(C)CCOc1cccc(OCC(=O)NC2CCS(=O)(=O)C2)c1 (stereo not drawn),9%,i,i,0.3%,2.6e-09
O=C(O)c1cccc(OCCO)c1,5%[11.4 µM],i,i,3.9%[11.5 µM],2.4e-09
COc1ccc(C(=O)CSc2nnc(CNC(=O)c3ccc(OC)cc3)n2C)cc1,?,i,i,-1.9%,1e-09
CN1CCN(c2nc3c(c(=O)n(C)c(=O)n3C)n2CCSc2nc3ccccc3s2)CC1,-10%,nt,nt,-1.4%,nt
COc1cc(-c2nnc3sc(-c4cccs4)nn23)cc(OC)c1OC,12%,i,i,-0.2%,1e-09
CC(=O)NC1(NC(C)=O)CCN(C)C(c2ccccc2)C1C (stereo not drawn),3%,nt,nt,1.0%,nt
CCN(CC)S(=O)(=O)c1ccc2c(c1)c(=O)c(C(=O)N1CCc3ccccc3C1)cn2C,6%,i,i,0.1%,4.5e-08
CCCC[C@H](CC)CN1CN(C[C@@H](CC)CCCC)CC(C)(N)C1,1%[25.6 µM],i,i,-3.2%[25.7 µM],1e-09
CC(=O)c1c(C)[nH]c(C(=O)N2CCc3ccccc3C2)c1C,3%,i,i,0.3%,1.5e-09
O=C(Nc1ccc2c(c1)oc1ccccc12)c1ccc2c(c1)OCO2,17%,i,i,-2.4%,1.1e-09
CCOC(=O)C1=C(Nc2cccc(Cl)c2)OCC1=O,6%,nt,nt,-0.5%,nt
CCCc1[nH]nc2c1C(Cc1ccccc1)C(C#N)=C(N)O2 (stereo not drawn),-9%,i,i,0.1%,8.9e-09
CC(=O)c1c(C)[nH]c(C(=O)OCC(=O)NCCc2ccc(F)cc2)c1C,3%,i,i,-2.4%,1e-09
CC1(C)CC(=O)C2=C(C1)OC(N)=C(C#N)C2CCc1ccccc1 (stereo not drawn),20µM*,i,i,1.7%,7.3e-09
COc1ccc(CCNC(=O)NC2CCCCC2)cc1OC,9%,i,i,-0.7%,2.2e-08
C=CCOc1nc(N2CCCC2)nc(N2CCCC2)n1,7%[11.4 µM],i,i,0.1%,1e-09
COc1cccc(C(=O)CSc2nnc(-c3cccs3)o2)c1,?,i,i,0.8%,1.5e-08
O=C1COC(c2ccccc2O)=NN1CCCN1CCCC1,4%[11.4 µM],i,i,9.6%[11.5 µM],4.9e-08
O=C(O)c1ccccc1C(=O)NCc1ccccc1,2%,nt,nt,14%,nt
CC(=O)N(Cc1cc(=O)[nH]c2ccccc12)c1ccc(C)cc1,0%,i,i,0.0%,1.2e-08
CCCn1c2c(c(O)c(C(=O)Nc3ccccn3)c1=O)CCCC2,6%,i,i,0.6%,2.7e-08
CCn1c(SCC(=O)O)nnc1-c1ccccc1,-1%,i,i,-0.4%,2.9e-08
COc1ccccc1-c1nnc2sc(COc3ccccc3)nn12,nt,i,i,nt,1e-09
O=C(O)c1[nH]c2ccc(Cl)cc2c1CC(=O)N1CCN(c2ccccc2)CC1,-8%,i,i,-1.2%,6.2e-09
CC(C)NC(=O)CSc1nnc(-c2ccc(C(C)(C)C)cc2)n1C,2%,i,i,0.8%,5e-08
CC(C)C(=O)N(Cc1cc(=O)[nH]c2ccccc12)c1ccccc1,nt,i,i,0.6%,1e-09
Cc1ccccc1OCC(=O)N(Cc1cccs1)C1CCS(=O)(=O)C1 (stereo not drawn),9%,i,i,-1.2%,4.4e-09
CCOc1cc(C(=O)Nc2ccc(N3CCN(S(C)(=O)=O)CC3)cc2)cc(OCC)c1OCC,-8%,i,i,-0.4%,3.2e-08
CC(C)CN1C(=O)c2ccc(C(=O)Nc3ccncc3)cc2C1=O,12%,i,i,0.6%,2e-08
CC(C)C(C(=O)NC1CCCCC1)N(CC1CCCO1)C(=O)CNS(=O)(=O)c1ccc(F)cc1 (stereo not drawn),7%,i,i,0.4%,1e-09
CCCN1Cc2cccc(C(=O)NCc3cccs3)c2C1=O,17%,i,i,-0.1%,1.3e-08
CC1=C(C(N)=O)C(c2cccc(O)c2)n2nc(CCCO)nc2N1 (stereo not drawn),-5%,nt,nt,-0.8%,nt

# Record cards, from the list above. Order of values: TSHR agonist, A488 fluor, Resorufin fluor, AID923, A647 autofl
# CC(C)C(=O)N(Cc1cc(=O)[nH]c2ccccc12)c1ccccc1 is listed as nt, i, i, 0.6%, 1e-09
# CC(C)CN1C(=O)c2ccc(C(=O)Nc3ccncc3)cc2C1=O is listed as 12%, i, i, 0.6%, 2e-08
# O=C(O)c1[nH]c2ccc(Cl)cc2c1CC(=O)N1CCN(c2ccccc2)CC1 is listed as -8%, i, i, -1.2%, 6.2e-09
# COc1ccccc1-c1nnc2sc(COc3ccccc3)nn12 is listed as nt, i, i, nt, 1e-09
# CCCN1Cc2cccc(C(=O)NCc3cccs3)c2C1=O is listed as 17%, i, i, -0.1%, 1.3e-08

# Next part
SMILES,TSHR agonist,A488 fluor,Resorufin fluor,AID923,A647 autofl
COc1ccccc1C1N(c2ccc(F)cc2)C(=O)C2CCCN21 (stereo not drawn),-1%,i,i,-0.1%,1e-09
CCn1c(SCC(=O)c2ccccc2)nnc1-c1ccoc1C,3%,i,i,-0.1%,4.8e-08
COCCN1CN=C(Nc2nc3ccccc3s2)NC1,6%,i,i,-1.6%,1e-09
CCOC(=O)CSC1=C(C#N)C(c2ccc3c(c2)OCO3)CC(=O)N1 (stereo not drawn),nt,i,i,nt,9.5e-08
CCn1cc(C2=NC(c3ccccc3)CO2)c2ccccc21 (stereo not drawn),6%,nt,nt,0.5%,nt
Cc1ccc(CCNC(=O)C2CCN(S(=O)(=O)N3CCCC3)CC2)cc1,?,i,i,-0.6%,1e-09
CCCCCCCCC1CO1 (stereo not drawn),4%,nt,nt,3.4%,nt
Cc1cc(Nc2cccc(C)c2C)n2ncnc2n1,3%,nt,nt,1.9%,nt
CCOc1ccc(NC(=O)CN2CCN(CC(=O)Nc3ccc(C(=O)OC)cc3)CC2)cc1,9%,i,i,-1.5%,5.2e-08
O=C(c1cc2ccccn2n1)N1CCN(c2cccc(C(F)(F)F)c2)CC1,?,i,i,-0.1%,1e-09
COc1cccc2c1[C@H](CO)N1[C@H](C#N)[C@@H]3C[C@H](C(=O)O)[C@@H]([C@@H]1C2)N3C,0%[11.4 µM],i,i,-2.1%[11.5 µM],1e-09
COc1cc([C@H](O)CO)ccc1O,nt,i,i,-0.8%,1.2e-08
CC(=O)N=c1sc2cc(C)ccc2n1C,2%,i,i,0.9%,4.1e-08
Cc1c(NC(=O)C(CC(=O)O)NCc2ccco2)c(=O)n(-c2ccccc2)n1C (stereo not drawn),nt,i,i,nt,1e-09
CC(=O)c1ccc(NC(=O)CCNS(=O)(=O)c2cccc3nonc23)cc1,-7%,i,i,0.5%,1e-09
CCN(CC)C(=O)c1sc(N)c(C#N)c1C,?,nt,nt,2.6%,nt
CC1CCCC(NC(=O)c2ccc3c(=O)n(CC4CCCO4)c(=O)[nH]c3c2)C1C (stereo not drawn),-1%,i,i,0.1%,1.5e-09
COC(=O)c1ccccc1S(=O)(=O)N(Cc1ccco1)Cc1cc2cc(OC)ccc2[nH]c1=O,4%,i,i,2.1%,7.6e-09
Cc1cc(C(=O)Nc2cccnc2)cs1,22%,i,i,0.1%,2.4e-08
CC1CCN(C(=O)c2ccc(NS(C)(=O)=O)cc2)CC1,1%,i,i,-3.2%,6e-09
CC(C)(C)C1CCc2[nH]c3ccccc3c(=O)c2C1 (stereo not drawn),-2%,nt,nt,-0.1%,nt
CCOC(=O)c1nnn(-c2nonc2N)c1CN1CCc2ccccc2C1,-5%,i,i,2.3%,1e-09
CCOC(=O)C(Oc1ccc(=O)n(-c2ccccc2)n1)C(C)=O (stereo not drawn),5%[11.4 µM],nt,nt,0.7%,nt
O=c1c2ccccc2oc2nc3n(c(=O)c12)CCCS3,-8%[11.4 µM],nt,nt,0.3%,nt
Nc1c(C(=O)NCc2ccccc2)nnn1Cc1cccc(Cl)c1,-6%,nt,nt,-0.7%,nt
O=C(NC1CC2CCCC(C1)N2Cc1ccco1)NC12CC3CC(CC(C3)C1)C2 (stereo not drawn),6%,i,i,-1.6%,2.7e-08
Cc1ccc(C)c([C@@H]2NC(=O)c3ccccc3N2)c1,0%[11.4 µM],i,i,0.7%[11.5 µM],1e-09
COc1cc(NC(=O)c2ccc3c(c2)OCO3)ccc1NC(=O)C(C)C,-6%,i,i,-1.8%,1e-09
CN(CC(=O)NCc1cccs1)S(=O)(=O)c1cccc2nsnc12,-6%,i,i,0.5%,1.6e-09
COc1ccc(CNC(=O)Cn2nc(C(F)(F)F)c3c2CCC3)cc1,-4%,i,i,1.9%,3.8e-08
COc1cc(NS(=O)(=O)c2ccc(NC(=O)COc3ccc(C)cc3)cc2)nc(OC)n1,-8%,nt,nt,0.0%,nt
COC(=O)C1=C(C)NC(=O)CC1c1cccc(OC)c1OC (stereo not drawn),20%,i,i,-1.4%,1e-09
CCOc1ccc(-c2nc(C#N)c(N3CCOCC3)o2)cc1,12%,nt,nt,2.0%,nt
O=S(=O)(NC1CCCC1)c1ccccc1Cl,0%,i,i,-1.0%,1e-09
c1ccc2cc(C3=NCCN3)ncc2c1,26%,nt,nt,-0.9%,nt
CC(C)CC(NC(=O)OC(C)(C)C)C(=O)NC(C(=O)NC(C)C(N)=O)C(C)C (stereo not drawn),0%,i,i,0.1%,9e-09
Cn1c(SCc2nnc3n2CCCCC3)nc2ccccc21,-1%,i,i,-1.3%,4.1e-09
Cc1ccc(Nc2nc(C(=O)NCc3ccco3)cs2)cc1,-10%,i,i,-0.7%,1.9e-08
CCCCC1CCC(c2nc(-c3cccnc3)no2)CC1 (stereo not drawn),11%[11.4 µM],nt,nt,0.6%,nt
C=C1CSc2nc(=O)c3c4c(sc3n21)CCC4,-2%,nt,nt,2.6%,nt
CCN(CC)Cc1c(O)ccc2c(C)c(CC(=O)OC)c(=O)oc12,nt,i,i,nt,1e-09
COc1ccc(Cl)cc1S(=O)(=O)N1CCN(Cc2ccc3c(c2)OCO3)CC1,9%,i,i,0.5%,1e-09
CN(C)c1ccc(NC(=O)CSc2nc3ccccc3c(=O)n2C2CCCCC2)cc1,?,i,i,-1.4%,6.9e-09
O=C(NCCC1=CCCCC1)C1CCN(Cc2cnn(-c3ccccc3)c2-n2cccc2)CC1,nt,i,i,0.2%,3.4e-09
CN(C(=O)c1ccno1)c1nnc(-c2cccnc2)s1,-4%,i,i,0.3%,3.8e-08
COc1cc2c(cc1NC(=O)c1cncc(Br)c1)oc1ccccc12,24%,i,i,15%,1e-09
CS(=O)(=O)N(CCc1ccccc1)CC(=O)N1CCN(c2ccccc2F)CC1,?,i,i,6.4%,2.7e-08
O=c1cnc2cnc(N3CCOCC3)nc2n1C[C@H]1CCCO1,nt,i,i,11%,6.7e-09

# From PubChem BioAssay
